Bioassay records (PubChem BioAssay)
NPR1 antag – antagonists of human natriuretic peptide receptor Npr1; HEK293 hNpr1 GloSensor cGMP, ANP-stimulated luminescence; Potency, µM (titrated, usually from 46.3 µM), for the others: top-dose activity change, negative = inhibition, most hits filed as inhibitors; 76,000 compounds, 1.6% hits; active = well fitted inhibition curve with a large enough effect; inconclusive = small, poorly fitted or top-dose-only effect; inactive = no such curve, though single readings can be large or run the other way;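 further: nearly all actives have a fitted effect of over 60% in size; nearly all hits also lower the signal before the agonist is added; a reference antagonist and vehicle were the controls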
Target sequence (P16066 whole entry, looked up): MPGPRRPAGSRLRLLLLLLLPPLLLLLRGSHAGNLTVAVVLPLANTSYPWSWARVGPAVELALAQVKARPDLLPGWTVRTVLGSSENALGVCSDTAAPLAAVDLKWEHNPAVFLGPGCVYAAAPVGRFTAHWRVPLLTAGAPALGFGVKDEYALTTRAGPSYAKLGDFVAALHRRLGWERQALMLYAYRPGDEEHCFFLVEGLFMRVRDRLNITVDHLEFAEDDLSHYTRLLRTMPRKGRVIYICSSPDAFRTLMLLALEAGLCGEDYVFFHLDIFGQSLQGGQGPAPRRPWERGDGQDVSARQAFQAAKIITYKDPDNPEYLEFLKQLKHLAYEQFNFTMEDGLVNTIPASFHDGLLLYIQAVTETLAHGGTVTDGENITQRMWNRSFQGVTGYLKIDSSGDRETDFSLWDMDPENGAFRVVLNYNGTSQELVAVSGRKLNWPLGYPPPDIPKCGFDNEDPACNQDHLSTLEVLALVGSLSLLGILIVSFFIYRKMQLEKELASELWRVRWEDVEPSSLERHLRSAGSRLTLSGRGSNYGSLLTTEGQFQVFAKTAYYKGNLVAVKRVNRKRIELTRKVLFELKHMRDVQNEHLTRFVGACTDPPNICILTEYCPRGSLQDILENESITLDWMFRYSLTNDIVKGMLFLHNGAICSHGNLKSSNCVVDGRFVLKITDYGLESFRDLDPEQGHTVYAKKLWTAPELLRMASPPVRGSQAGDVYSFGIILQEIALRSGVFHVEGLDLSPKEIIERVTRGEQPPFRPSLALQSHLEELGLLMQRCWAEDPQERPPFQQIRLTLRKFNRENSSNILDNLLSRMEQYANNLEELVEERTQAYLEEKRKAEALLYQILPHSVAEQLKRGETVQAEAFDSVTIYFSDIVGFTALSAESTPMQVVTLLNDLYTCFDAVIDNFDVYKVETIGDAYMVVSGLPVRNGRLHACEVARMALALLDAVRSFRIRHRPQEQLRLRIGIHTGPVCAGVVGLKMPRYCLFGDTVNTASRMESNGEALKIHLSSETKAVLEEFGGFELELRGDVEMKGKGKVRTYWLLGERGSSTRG
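Compound pre-incubated 30 min at room temperature on GloSensor-loaded HEK293 cells stably carrying hNpr1 and the pGS-40F cGMP biosensor. Stimulation uses hNppA at 0.1 nM final; luminescence is taken at baseline and 20 min post-agonist.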
* hit, by the source's call; ? = inconclusive; & = joins results of further samples; [ ] = dose if it differs, or a comment. On the % scale 0 is the no-effect control and ±100 the full control effect; potency means the concentration at half of the fitted maximal effect. These rows are one share of the data, so the mix of outcomes need not match the whole.

SMILES	NPR1 antag
CC(C)N1C(=O)CO[C@H](c2ccc(NC(=O)NCc3ccccc3)cc2)[C@H]1CO	-14.1%[70.6 µM]
COc1ccc(CCc2nnc3n2CCCC3)cc1	-7.6%
Cc1cccc(CNC(=O)c2ccc(Cn3ccn4nc5c(c4c3=O)CCCC5)cc2)c1	-14.2%
COCCn1c(C)cnc1CCN	1.1%
Cc1cc(NCc2cncn2CC(C)C)n2nc(C)cc2n1	0.8%
CN1CCCCC1C(=O)NCc1cccnc1Oc1cccc(C(F)(F)F)c1 (stereo unspecified)	6.0%
COC[C@H]1NC(=O)CC[C@H]1C(=O)NCCc1ccccc1	2.0%
COCCOc1ccc2c(n1)CCN(C(=O)CCc1ccccc1)C2	0.0%
Cc1ccc(C(=O)NC2CCN(c3cc(-c4cccs4)[nH]n3)C2)cc1 (stereo unspecified)	-12.6%
COc1cccc(CNC(=O)Cn2c(=O)c(-c3noc(C)n3)c3n(c2=O)CCCCC3)c1	2.8%
CN(CC1(C)CCOCC1)S(=O)(=O)C1CC1	-10.5%
O=C(N[C@H]1[C@H](O)[C@H](O)C[C@@H]1c1cccnc1)c1ccccc1	-4.3%[70.6 µM]
O=C1COc2ccc(N3CCOCC3)nc2CN1Cc1ccccc1F	-2.7%[70.6 µM]
CNC(=O)c1cc(-c2ccccc2F)cc2c1OCCN2Cc1cccnc1	-28.0%[70.6 µM]
O=C(NCc1ccccn1)C1CCc2sc(C(=O)N3CCOCC3)cc2C1 (stereo unspecified)	7.5%
CCn1nccc1C(=O)N1CCC(CCOc2ccc(F)cc2)C1 (stereo unspecified)	12.6µM*
CCCOC1CCCN(C(=O)c2ccc3nc(-c4ccc(F)cc4)cn3c2)C1 (stereo unspecified)	0.2%
Cc1cc(C(=O)N2CCCC(c3nn(C)c(=O)n3Cc3ccccc3)C2)n(C)n1 (stereo unspecified)	-10.9%
Cc1ncoc1C(=O)N1CCC(N2C[C@H](O)C[C@H]2C(=O)NC2CCCCC2)CC1	2.5%
COc1ccc2[nH]c3c(c2c1)CCNC31CCN(C(=O)CN2CCCC2=O)CC1	-4.0%
CCc1cn(C[C@H](NCC(C)(C)C)C(=O)O)c(=O)[nH]c1=O	4.9%[70.6 µM]
COc1cccc(Nc2cc3c(cn2)NCCN(Cc2ccccc2)C3)c1	-21.2%[70.6 µM]
Cn1ccnc1C(O)c1cc2n(n1)CCN(C/C=C/c1ccccc1)C2 (stereo unspecified)	-0.4%
COc1ccc(-n2c(=O)c3c(n2Cc2ccccc2)CN(C(=O)c2cccc(O)c2)CC3)cc1	3.5%
COc1ccc(C)cc1NC(=O)Cn1c(-c2ccccc2)nc(C)c(CCO)c1=O	-1.1%

Reprinted from above (4 entries):
SMILES	NPR1 antag
COc1cccc(Nc2cc3c(cn2)NCCN(Cc2ccccc2)C3)c1	-21.2%[70.6 µM]
Cn1ccnc1C(O)c1cc2n(n1)CCN(C/C=C/c1ccccc1)C2 (stereo unspecified)	-0.4%
COc1ccc(-n2c(=O)c3c(n2Cc2ccccc2)CN(C(=O)c2cccc(O)c2)CC3)cc1	3.5%
COc1ccc(C)cc1NC(=O)Cn1c(-c2ccccc2)nc(C)c(CCO)c1=O	-1.1%

6 compounds already listed, arranged by the value under NPR1 antag, low to high.
SMILES	NPR1 antag
COc1ccc2[nH]c3c(c2c1)CCNC31CCN(C(=O)CN2CCCC2=O)CC1	-4.0%
COc1ccc(C)cc1NC(=O)Cn1c(-c2ccccc2)nc(C)c(CCO)c1=O	-1.1%
Cn1ccnc1C(O)c1cc2n(n1)CCN(C/C=C/c1ccccc1)C2 (stereo unspecified)	-0.4%
COCCOc1ccc2c(n1)CCN(C(=O)CCc1ccccc1)C2	0.0%
CCCOC1CCCN(C(=O)c2ccc3nc(-c4ccc(F)cc4)cn3c2)C1 (stereo unspecified)	0.2%
O=C(NCc1ccccn1)C1CCc2sc(C(=O)N3CCOCC3)cc2C1 (stereo unspecified)	7.5%

More results follow.
SMILES	NPR1 antag
O=C(CCC[C@H]1NC[C@@H]2C[C@H]1CN(Cc1ccccc1)C2)Nc1cccc(F)c1	-3.1%
Cc1ccc(-c2cc(C(=O)N3CCC(c4nc(CCOCC5CC5)no4)C3)[nH]n2)cc1 (stereo unspecified)	0.9%
CCCc1nc(C(=O)NCC(C)Cn2nc(C)cc2C(F)(F)F)cs1 (stereo unspecified)	0.4%
Cc1ccc([C@H]2CN(C(=O)CN3CCOC3=O)C[C@@H]2N)o1	1.2%
COc1ccc(-c2ccc3nc(-c4ccc(F)c(C)c4)oc3c2)c(OC)c1OC	-1.1%
Cc1nc(C2CC(O)C2)cc(N2CC(N3CCOCC3)C2)n1 (stereo unspecified)	2.8%
C[C@H]1CCCN1C(=O)c1nnc(CNc2ccc(OC(F)(F)F)cc2)n1-c1ccccc1	-0.3%
Cc1noc([C@@H]2C[C@H](NS(=O)(=O)c3cccs3)CN2C)n1	-1.8%[70.6 µM]
O=C(CCc1nc2ccc(Cl)cc2[nH]1)N1CCCC(Cc2nc(C3CCOCC3)no2)C1 (stereo unspecified)	-28.1%
CCn1cc(S(=O)(=O)N2CCC3(CC2)CNC(C(=O)O)C3)cn1 (stereo unspecified)	1.3%
COc1ccc(OC)c(C2=NOC(C(=O)O)C2)c1 (stereo unspecified)	4.5%
CCCNC(=O)NC[C@@H]1C=C(C)[C@H](Cc2nc3nc(OC)ccc3[nH]2)C[C@H]1C(C)C	-19.4%[70.6 µM]
O=C(CCC1CCN(C(=O)c2ccccc2)CC1)NCCCN1CCOCC1	-2.3%
COc1ccc(OCc2cc(C(=O)N3C[C@H]4CC[C@H]3C4)n[nH]2)c(Cl)c1	-17.8%
O=C(NC1CCCc2c1[nH]c1ccccc21)c1cccnc1 (stereo unspecified)	0.7%
Fc1ccccc1-c1noc(-c2nc(C3CC3)no2)n1	?
CCOc1ccccc1NC(=O)[C@H]1CCC[C@H]1NC(=O)c1ccc(OC)cc1	1.1%
CN1CCN(CCNC(=O)c2ccc3c(c2)N(S(=O)(=O)c2ccccc2F)CC3)CC1	-3.1%
Cc1nc(CC2CCN(C(=O)Cn3cccc(C(F)(F)F)c3=O)CC2)no1	-0.6%
CCOc1ccccc1CN1CC[C@H](CNC(C)=O)[C@H](N(C)C)C1	4.2%
CN(C)Cc1nnc(C2CC(NC(=O)c3ccccc3-c3ncn[nH]3)C2)n1C (stereo unspecified)	1.3%
CCCc1cc(C(=O)N2CCOC(c3ccc(Cl)c(Cl)c3)C2)ccn1 (stereo unspecified)	?
O=C(Cc1ccc(F)cc1)N1CCC2(CC1)NC(=O)N(c1ccccc1)N2	-1.5%
Cc1nc(N2CCC(NC(=O)CCC3CCCC3)CC2)cc(C(F)(F)F)n1	?
Cc1ccc(CN2C[C@@H](CO)[C@H](NC(=O)c3cccnc3)C2)cc1	6.6%
SMILES	NPR1 antag
CC(C)(Oc1nn(CCN2CCOCC2)c2ccccc12)C(=O)NCCOc1ccccc1	0.8%
O=C(Cc1cccc(Cl)c1)NCc1ccnc2[nH]ccc12	-20.1%[70.6 µM]
COc1ccc(C(=O)N2CCC(Cc3nc(-c4cnccn4)no3)CC2)cc1	-4.0%
COc1cccc(CCC(=O)N2CCC3(CC2)CCC(O)(CN(C)C)CC3)c1	10.6%
COc1ccc(C(=O)N2CC3CC(C2)[C@H]2CCCC(=O)N2C3)c(OC)n1 (stereo partly specified)	1.5%
CN(Cc1cccn1C)C(=O)c1ccc(Cl)nc1	-1.8%[70.6 µM]
CCc1cc(C(=O)N2CCOCC2CC(=O)N2CCSCC2)cs1 (stereo unspecified)	3.0%
COc1ccc(Cl)cc1-c1nc(C2CC(=O)N(C3CCCCC3)C2)no1 (stereo unspecified)	-2.4%
Cc1nnc([C@@H]2CC(F)(F)CN2C(=O)c2nn(C)c3ccccc23)o1	-0.7%
CCCNC(=O)N1CCCC(c2nc(CCOCC3CC3)no2)C1 (stereo unspecified)	2.6%
COc1cccc([S+](=O)([O-])N2CCC3(CC2)C(=O)NN=C3c2ccncc2)c1	-24.1%
O=C(c1cc2cc(F)ccc2[nH]1)N1CCCC(CO)(Cc2cccc(Cl)c2)C1 (stereo unspecified)	-19.4%
CNC(=O)[C@@H](c1ccc(Cl)cc1)N1CCC[C@H]1C(=O)N1CC[C@@H](O)C1	4.9%[70.6 µM]
C1CC(N2CCC(c3nc(C4CCOC4)no3)CC2)CCO1 (stereo unspecified)	3.1%
O=C(Cc1cccc(F)c1)NCCC1CCN(C(=O)Nc2ccc(F)cc2F)CC1	-0.6%
c1ccc(CN2C[C@H]3CCN(C4CCOCC4)C[C@H]32)cc1	4.5%
Cn1c(CO[C@H]2CN(C(=O)Nc3ccccc3)C[C@H]2F)nc2ccccc21	3.0%[70.6 µM]
Cc1ccc(Cn2ccn3nc(-c4ccccc4)c(CO)c3c2=O)cc1	?
Cn1cc(-c2cccnc2)c2nc(COc3ccccc3)cn2c1=O	5.9%[70.6 µM]
O=c1[nH]nc2n1CCN(Cc1ccncc1)CC2	14.1%
COCCNC(=O)c1cc(-c2cccc3[nH]ccc23)cc2ncn(C)c12	-1.6%[70.6 µM]
O=C(CCc1nnn2c1CN(C(=O)c1ccccc1)CC2)N1CCOCC1	-1.8%
COC(=O)[C@@H]1Cc2c([nH]c3ccccc23)[C@H]2C[C@@H](NCc3cccnc3)C[C@@H](c3ccc(F)cc3)N21	-2.8%
Cc1ccc(C2NC(=O)N(CC(=O)Nc3cc(F)ccc3F)C3=C2C(=O)OC3)cc1 (stereo unspecified)	-0.7%
Cc1nc(-c2ccc(F)cc2)n(Cc2ccccc2F)c(=O)c1CCO	4.6%
SMILES	NPR1 antag
CC(C)c1ccc(CNC(=O)c2noc(-c3ccc[nH]c3=O)n2)cc1	4.6%
COc1ccc2[nH]c3c(c2c1)CCNC31CCN(C(C)C)CC1	-2.0%
COCC(C)NC(=O)c1csc2nc(-c3cccc(C(F)(F)F)c3)cn12 (stereo unspecified)	-1.9%
CSc1ccc(CNC(=O)c2cc3n(n2)CC(c2ccc(Cl)cc2)OC3)cc1 (stereo unspecified)	?
O=C1CC(c2ccccc2)N(C(=O)CCc2ccccc2)CCCCCN1 (stereo unspecified)	3.6%
CN1C(=O)COC[C@@H]1[C@H](O)c1ccc(NC(=O)c2ccc(F)cc2)cc1	-5.6%[70.6 µM]
CS(=O)(=O)N1CCC(OC2CCN(C(=O)Nc3ccccc3F)CC2)CC1	2.8%
CN(Cc1ccccc1)C(=O)CCc1nc(C2CCCN2C(=O)C2CCC2)no1 (stereo unspecified)	-4.9%
Cc1cc(C(=O)N2CC(Oc3ccc(-c4nc(-c5ccccc5)no4)cc3)C2)n[nH]1	1.0%
COc1cc(C(=O)NC2CCCc3c2[nH]c2ccccc32)cc(OC)c1OC (stereo unspecified)	3.2%
Cc1ccc(C(=O)N2CCCn3cc(-c4ccccc4)nc32)cn1	2.0%
COc1cccc(NC(=O)COc2ccc(-c3nnc4n3CCCC4)cc2)c1	-1.6%
CN1CCC(N2CCN(C(=O)c3c(F)cccc3F)CC2)C1=O (stereo unspecified)	-2.5%
CC(=O)c1cccc(NC(=O)N2C[C@H](c3nc(-c4ccncc4)no3)[C@@H](C)C2)c1	0.6%
CN(Cc1cccnc1)C1CCc2ccccc21 (stereo unspecified)	-13.4%&23.4%[70.6 µM]
CC(C)(C)CC(=O)NC1CCN(c2ccc(F)cc2)C1=O (stereo unspecified)	1.8%
O=C(NCc1cccnc1)c1ccc2nccn2c1	-11.6%[70.6 µM]
O=C(Cc1ccc2c(c1)OCO2)NCc1cccnc1N1CCOCC1	1.7%
NC1CCCCN(Cc2ccc(Cl)c(F)c2)C1 (stereo unspecified)	0.8%
CCNC(=O)N1CCc2cc(OC)c(OC)cc2C1CNC(=O)C1CC1 (stereo unspecified)	-2.5%
Cc1ccncc1C(=O)N1CCCC(c2nc(-c3cccnc3)no2)CCNC(=O)CC1 (stereo unspecified)	-3.1%
O=C(c1ccc2c(c1)OCO2)N1CCCC(n2cc(-c3nc(C4CC4)no3)nn2)C1 (stereo unspecified)	-4.1%
COc1ccc(Cc2nc3nccc(-c4ccsc4)n3n2)cc1	6.0%
O=C(Nc1ccc(C(F)(F)F)cc1)N1CCC2(CC1)C(=O)NCN2Cc1ccc(Cl)cc1	0.0%
O=C(O)c1ccc(CN2C[C@@H]3OCC(=O)N(Cc4cccnc4)[C@@H]3C2)cc1	4.3%[70.6 µM]
SMILES	NPR1 antag
Cc1ccc(C)c(C(=O)N[C@@H]2CN(c3ncccn3)C[C@H]2CN(C)C)c1	7.6%
CC(=O)NC1(C)CCN(Cc2ccc(-c3ccc4ccccc4c3)cc2)C1 (stereo unspecified)	15.8µM*
CCCOC(=O)N1CCCC(c2nnc(CN3CCOCC3)n2C)C1 (stereo unspecified)	4.7%
COCC(=O)N1CC[C@]2(O)CCN(C(=O)c3ccn(C)c3C)C[C@@H]2C1	1.1%
COCCOCC(=O)NCC12CCCC=C1NC(=O)CC2 (stereo unspecified)	10.4%
Cc1noc(C)c1[S+](=O)([O-])N1CCC2(CC1)CC(=O)c1ccc(Cl)cc1O2	-4.3%
Cc1noc2c(-c3ccc4c(ccn4C)c3)cc(-c3cccnc3)nc12	-1.0%[70.6 µM]
O=C1CC(c2ccccc2)N(C(=O)CNC(=O)c2nccc3ccccc23)CCCCCCN1 (stereo unspecified)	5.2%
COc1ccc2ccccc2c1CCNC(=O)CC1C(=O)NCCN1C(C)C (stereo unspecified)	-5.3%
Cc1ccc2c(C(=O)N3CCN(c4ccccc4)CC3)cc(NC(=O)C(C)C)cc2n1	-0.6%
